Screening data deposited in PubChem BioAssay by Broad Institute.
FGF22 binding – shifts melting point of recombinant human FGF22; calls only at 9.99 µM; recombinant FGF22 thermal shift, SYPRO orange fluorescence; percent of sucrose octasulfate shift, DMSO zero; 340,000 compounds, 1.5% hits; Q9HCT0;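 active means melting point raised past a set limit in the mean and every replicate; three in four hits are not shown here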
Target sequence (Q9HCT0 whole entry, looked up): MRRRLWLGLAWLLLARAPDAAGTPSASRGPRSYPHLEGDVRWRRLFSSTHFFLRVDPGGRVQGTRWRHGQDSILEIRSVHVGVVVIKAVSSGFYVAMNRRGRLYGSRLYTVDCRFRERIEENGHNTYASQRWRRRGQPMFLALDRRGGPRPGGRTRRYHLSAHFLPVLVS
rRNA inh HTS – selective bacterial rRNA inhibition in E. coli; E. coli WT GFP vs humanized-ribosome RFP mutants, fluorescence, 24 h; active compounds read low; DMSO median 0, no signal -100; GFP signal change (wild-type ribosome), % (concentration not given with the values); 350,000 compounds, 1.6% hits;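 active means significant combined selectivity score with lowered wild-type GFP, culture density cut under 30%, mutant RFP and density less affected; inactive means any of these conditions unmet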; further: one replicate is shown; some compounds called inactive have numbers as strong as hits
rRNA inh HTS OD600 – further read-out of rRNA inh HTS, marked with its call; OD600 change, %; measured here: OD600 growth;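 optical density of the mix in the first replicate; 0 = DMSO median and -100 = no signal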
rRNA inh HTS RFP – also measured in rRNA inh HTS; calls as there; RFP signal change, %; measured here: RFP humanized mutant strains;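 first replicate; 0 = DMSO median and -100 = no signal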
Active calls of the source: *; i = inactive; . = no result given.

SMILES	FGF22 binding	rRNA inh HTS	rRNA inh HTS OD600	rRNA inh HTS RFP
C[C@H](CO)N1C[C@H](C)[C@@H](CN(C)Cc2ccccc2)Oc2ccc(NC(=O)c3ccncc3)cc2CC1=O	i	-3.8	-6.1	3.1
COc1ccc(NC(=O)N2C[C@@H](O)COC[C@H]3O[C@@H](CC(=O)NCc4ccncn4)CC[C@@H]32)cc1	i	5.0	-3.0	-3.2
O=C(Nc1cccc(F)c1)N1C[C@@H]2N[C@H](C1)C2c1ccc(-c2cncnc2)cc1 (stereo partly drawn)	i	4.5	-2.5	-4.2
C[C@H](CO)N1C[C@H](C)[C@@H](CN(C)S(C)(=O)=O)Oc2c(NC(=O)c3nc4ccccc4s3)cccc2C1=O	i	-8.0	-7.2	-0.8
CCC(=O)Nc1ccc2c(c1)OC[C@@H](C)N(C(=O)c1ccccc1F)C[C@H](C)[C@@H](OC)CN(C)C2=O	i	1.6	4.6	-1.8
C[C@H]1CN([C@@H](C)CO)C(=O)c2cc(NS(C)(=O)=O)ccc2O[C@H]1CN(C)S(=O)(=O)c1ccc(F)cc1	i	-1.0	5.8	0.0
C[C@@H]1CN([C@H](C)CO)C(=O)Cc2cc(NC(=O)Cc3ccccc3)ccc2O[C@H]1CN(C)Cc1ccncc1	i	0.8	3.7	-0.8
C[C@@H]1CN([C@H](C)CO)C(=O)c2cc(NC(=O)Cc3ccccc3)ccc2O[C@H]1CN(C)Cc1ccc(Cl)c(Cl)c1	i	1.2	-9.7	1.0
CN(C)CC(=O)Nc1ccc2c(c1)[C@@H]1C[C@H](CC(=O)NC3CCCCC3)O[C@@H](CO)[C@@H]1O2	i	0.8	4.1	1.6
CCOC(=O)N(C)C[C@H]1OCc2ccccc2-c2c(n(C)c3ccccc23)C(=O)N([C@H](C)CO)C[C@@H]1C	i	-3.6	-3.5	3.4
O=C(C[C@@H]1C[C@@H]2c3cc(NC(=O)c4cccnc4)ccc3O[C@@H]2[C@@H](CO)O1)NCc1ccccn1	i	6.1	9.1	0.8
Cc1ccc(S(=O)(=O)Nc2ccc3c(c2)CC(=O)N([C@@H](C)CO)C[C@@H](C)[C@H](CN(C)S(=O)(=O)c2cn(C)cn2)O3)cc1	i	1.6	1.8	-0.6
COc1ccc2c(c1)[C@@]1(OCCC=C[C@H]1C)C(=O)N2Cc1ccc(F)cc1	i	13.7	15.2	-3.3
C[C@@H]1CN([C@@H](C)CO)C(=O)c2cc(NS(=O)(=O)c3ccc(Cl)cc3)ccc2O[C@@H](C)CCCCO[C@@H]1CN(C)C	i	2.2	1.1	-0.3
COc1ccccc1NC(=O)N[C@@H]1CC[C@H](CCn2cc(-c3ccccc3)nn2)O[C@H]1CO	i	0.2	-4.7	0.1
O=C(NCc1ccncc1)[C@H]1N[C@H]2c3ccc(/C=C/c4ccccc4)c(=O)n3C[C@H]2[C@@H]1CO	i	-1.7	3.2	0.0
CN1C(=O)c2cc(NC(=O)C3CCOCC3)ccc2OC[C@H]2O[C@@H](CC(=O)NC3CCCC3)CC[C@@H]21	i	2.1	2.7	-2.3
CC(C)[C@@H](C)NC(=O)N(C)C[C@@H]1OCc2ccccc2-c2ccccc2C(=O)N([C@H](C)CO)C[C@@H]1C	i	0.3	4.2	-1.7
CO[C@@H]1CN(C)C(=O)c2ccc(NS(=O)(=O)c3cn(C)cn3)cc2OC[C@@H](C)N(Cc2cccc(C(F)(F)F)c2)C[C@H]1C	i	-8.7	-13.2	8.2
C[C@H]1CCCCO[C@H](CN(C)S(=O)(=O)c2cn(C)cn2)[C@@H](C)CN([C@@H](C)CO)C(=O)c2cc(NS(=O)(=O)c3cn(C)cn3)ccc2O1	i	1.6	6.6	-2.7
Cc1noc(C)c1S(=O)(=O)Nc1ccc2c(c1)C(=O)N([C@H](C)CO)C[C@@H](C)[C@H](CN(C)Cc1ccc(-c3ccccc3)cc1)O2	i	3.9	-1.3	3.3
COc1ccc(S(=O)(=O)Nc2ccc3c(c2)C(=O)N([C@@H](C)CO)C[C@H](C)[C@@H](CN(C)Cc2ccc(C(F)(F)F)cc2)O3)cc1	i	-3.8	-13.8	3.2
COC(=O)[C@]12C[C@H](CC(=O)NCc3ccccc3)C(=O)N(Cc3ccc4c(c3)OCO4)C1=C[C@H](C(C)(C)C)O[C@@H]2C	i	15.1	-6.2	6.1
COc1cccc(NC(=O)N(C)C[C@H]2Oc3ncc(/C=C/c4ccccc4)cc3C(=O)N([C@@H](C)CO)C[C@H]2C)c1	i	-5.7	3.9	6.2
COc1ccc(NC(=O)N(C)C[C@H]2Oc3ccc(NS(=O)(=O)c4c(C)noc4C)cc3C(=O)N([C@H](C)CO)C[C@H]2C)cc1	i	4.1	2.8	-1.2

Only rRNA inh HTS OD600, rRNA inh HTS and FGF22 binding (three entries from above):
mol,rRNA inh HTS OD600,rRNA inh HTS,FGF22 binding
C[C@@H]1CN([C@H](C)CO)C(=O)Cc2cc(NC(=O)Cc3ccccc3)ccc2O[C@H]1CN(C)Cc1ccncc1,3.7,0.8,i
C[C@H]1CN([C@@H](C)CO)C(=O)c2cc(NS(C)(=O)=O)ccc2O[C@H]1CN(C)S(=O)(=O)c1ccc(F)cc1,5.8,-1.0,i
CC(C)[C@@H](C)NC(=O)N(C)C[C@@H]1OCc2ccccc2-c2ccccc2C(=O)N([C@H](C)CO)C[C@@H]1C,4.2,0.3,i

Remaining list, next part.
SMILES	FGF22 binding	rRNA inh HTS	rRNA inh HTS OD600	rRNA inh HTS RFP
O=C(C[C@H]1CC[C@@H](NC(=O)CN2CCOCC2)[C@@H](CO)O1)NCc1cccc(F)c1	i	2.0	2.5	-0.7
C[C@@H]1CN([C@H](C)CO)C(=O)c2cc(C#CCC3CCCC3)cnc2O[C@H]1CN(C)C(=O)CN(C)C	i	3.3	0.1	2.1
COc1cccc(C(=O)Nc2ccc3c(c2)C(=O)N(C)[C@@H]2CC[C@H](CC(=O)NCC(F)(F)F)O[C@@H]2CO3)c1	i	-1.4	-8.0	0.8
C[C@H]1CN([C@@H](C)CO)C(=O)c2cccc(NS(=O)(=O)c3ccc(Cl)cc3)c2O[C@H]1CN(C)S(C)(=O)=O	i	5.1	11.3	-1.8
O=S(=O)(N[C@H]1CC[C@@H](CCn2cc(-c3cccc(F)c3)nn2)O[C@@H]1CO)c1ccc(Cl)cc1	i	-12.0	-35.3	33.8
O=C(C[C@H]1CC[C@@H](NC(=O)c2cccnc2)[C@@H](CO)O1)NCc1ccc(Cl)c(Cl)c1	i	0.4	3.9	-0.8
CC(C)NC(=O)Nc1ccc2c(c1)C(=O)N([C@@H](C)CO)C[C@H](C)[C@H](CN(C)C(=O)NC1CCCCC1)OCCCC[C@H](C)O2	i	-1.1	1.6	0.3
CN(C)CC(=O)Nc1ccc2c(c1)[C@@H]1C[C@@H](CC(=O)NCc3ccccc3F)O[C@@H](CO)[C@@H]1O2	i	1.9	4.0	-0.4
COc1ccc(NC(=O)Nc2ccc3c(c2)CC(=O)N([C@@H](C)CO)C[C@H](C)[C@@H](CN(C)Cc2ccc(Oc4ccccc4)cc2)O3)cc1	i	4.0	9.8	1.7
CC=Cc1ccc2n(c1=O)C[C@H]1[C@H](CO)[C@@H](C(=O)NCCC)N(CC3CCCC3)[C@@H]21 (mixture of isomers)	i	-3.5	-5.1	4.0
COc1ccc(NC(=O)N(C)C[C@@H]2Oc3ccc(NC(=O)Cn4cnnn4)cc3C(=O)N([C@H](C)CO)C[C@@H]2C)cc1	i	-0.2	0.1	0.6
C[C@H](CO)N1C[C@H](C)[C@H](CN(C)S(=O)(=O)c2ccc(Cl)cc2)OCCCC[C@H](C)Oc2ccc(NC(=O)Nc3ccccc3)cc2C1=O	i	0.9	0.7	0.3
C[C@@H]1CN([C@H](C)CO)C(=O)Cc2cc(NC(=O)C3CCCCC3)ccc2O[C@H]1CN(C)Cc1ccc(C(=O)O)cc1	i	2.4	8.8	1.0
C[C@@H]1CN([C@H](C)CO)C(=O)c2cc(C#CCC3CCCC3)cnc2O[C@@H]1CN(C)Cc1ccccn1	i	3.2	4.9	-1.2
CC=Cc1ccc2n(c1=O)C[C@H]1[C@H](CO)[C@@H](C(=O)Nc3ccccc3)N(CC3CCCC3)[C@@H]21 (mixture of isomers)	i	-3.6	-16.1	12.5
O=C(Nc1cc(F)ccc1F)N1CCCCN2[C@H](CO)[C@H](c3ccc(-c4cncnc4)cc3)[C@H]2C1	i	-1.9	10.7	1.3
Cc1noc(C)c1NC(=O)Nc1ccc2c(c1)CC(=O)N([C@@H](C)CO)C[C@H](C)[C@H](CN(C)S(=O)(=O)c1ccccc1)O2	i	-2.8	2.6	-0.9
COc1cccc(-c2cnc3c(c2)C(=O)N([C@H](C)CO)C[C@H](C)[C@H](CN(C)C(=O)Nc2ccccc2)O3)c1	i	-5.6	-1.3	0.0
C[C@H](CO)N1C[C@H](C)[C@H](CN(C)Cc2ccncc2)Oc2c(NC(=O)C3CC3)cccc2C1=O	i	2.9	27.5	-0.6
COc1ccc(NC(=O)N(C)C[C@H]2Oc3ncc(-c4ccc(C#N)cc4)cc3C(=O)N([C@H](C)CO)C[C@@H]2C)cc1	i	-4.7	-3.1	-1.4
C[C@@H]1CN([C@H](C)CO)C(=O)c2cc(C#C[C@@H](C)O)cnc2O[C@H]1CN(C)C(=O)c1ccncc1	i	1.1	3.5	-3.4
COc1cccc(S(=O)(=O)N(C)C[C@H]2Oc3ncc(C#CC(C)C)cc3C(=O)N([C@@H](C)CO)C[C@@H]2C)c1	i	-4.6	-5.6	0.4
CCNC(=O)[C@H]1[C@H](CO)[C@H]2Cn3c(ccc(-c4ccccc4)c3=O)[C@H]2N1CC	i	2.0	-2.4	-3.1
C[C@H]1CN([C@@H](C)CO)C(=O)CCCn2cc(nn2)CO[C@@H]1CN(C)Cc1ccc(-c2ccccc2)cc1	i	0.9	-0.7	-0.2
COc1ccc(CN(C)C[C@@H]2Oc3ccc(NC(=O)NC4CCCCC4)cc3CC(=O)N([C@H](C)CO)C[C@@H]2C)cc1	i	-2.0	-4.2	1.7
Continued.
SMILES	FGF22 binding	rRNA inh HTS	rRNA inh HTS OD600	rRNA inh HTS RFP
Cc1noc(C)c1NC(=O)N(C)C[C@H]1OCCCC[C@@H](C)Oc2ccc(NC(=O)Cc3ccccc3)cc2C(=O)N([C@H](C)CO)C[C@H]1C	i	1.5	2.0	-1.5
O=C(Nc1cc(F)ccc1F)N1CCCCN2[C@@H](CO)[C@@H](c3ccc(-c4ccncc4)cc3)[C@@H]2C1	i	-3.3	0.4	-2.5
COc1cccc(S(=O)(=O)Nc2ccc3c(c2)OC[C@H](C)N(Cc2ccccc2F)C[C@H](C)[C@H](OC)CN(C)C3=O)c1	i	-2.1	-13.8	11.9
C[C@H]1CN([C@@H](C)CO)C(=O)c2cccc(NC(=O)c3cnccn3)c2O[C@@H]1CN(C)C	i	5.7	4.8	0.0
C[C@H](CO)N1C[C@H](C)[C@H](CN(C)C(=O)c2ccccc2)Oc2cc(-c3cccc(C#N)c3)ccc2S1(=O)=O	i	-8.5	-16.9	5.5
NC(=O)c1c(N)[nH]c(C(=O)c2ccccc2)c1-c1ccccc1	.	5.6	14.2	7.6
CC=Cc1ccc2n(c1=O)C[C@H]1[C@H](CO)[C@@H](C(=O)Nc3ccc(-c4ccccc4)cc3)[C@@H]2N1C(=O)CC (mixture of isomers)	i	-14.2	-57.1	37.7
C[C@@H]1CCCCO[C@@H](CN(C)Cc2ccc(Cl)c(Cl)c2)[C@H](C)CN([C@@H](C)CO)C(=O)c2cc(NC(=O)Nc3ccc4c(c3)OCO4)ccc2O1	i	-4.3	-3.3	-3.4
CNC(=O)C[C@@H]1CC[C@H]2[C@H](COc3ccc(NC(=O)c4ccccc4OC)cc3C(=O)N2C)O1	i	0.3	-0.2	-1.7
Cc1ccccc1S(=O)(=O)N1C[C@H](O)COC[C@H]2O[C@H](CC(=O)N3CCN(C)CC3)CC[C@@H]21	i	-1.6	13.9	-4.2
C[C@@H]1CN([C@H](C)CO)C(=O)c2c(c3ccccc3n2C)-c2ccccc2CO[C@@H]1CN(C)S(=O)(=O)c1ccc(Cl)cc1	i	4.0	7.8	-0.5
COc1ccc(CN(C)C[C@H]2Oc3ccc(NC(=O)Cn4cnnn4)cc3CC(=O)N([C@H](C)CO)C[C@@H]2C)cc1	i	0.5	0.9	2.2
Cc1cccc(-c2ccc([C@H]3[C@@H](CO)N4CCCCN(S(=O)(=O)c5cn(C)cn5)C[C@H]34)cc2)c1	i	0.5	-11.2	2.4
C[C@@H]1CN([C@@H](C)CO)C(=O)c2cc(NC(=O)CCC(F)(F)F)ccc2O[C@@H](C)CCCCO[C@@H]1CN(C)CC1CCCCC1	i	0.5	-3.1	-1.0
COc1ccc(CN(C)C[C@@H]2Oc3ccc(NC(=O)c4ccncc4)cc3C(=O)N([C@@H](C)CO)C[C@@H]2C)cc1	i	-5.7	5.0	0.9
Cc1noc(C)c1S(=O)(=O)Nc1ccc2c(c1)C(=O)N([C@H](C)CO)C[C@@H](C)[C@@H](CN(C)C(=O)C1CCCCC1)OCCCC[C@@H](C)O2	i	-4.7	-4.2	-0.3
CO[C@H](CN(C)C(=O)c1ccccc1F)[C@@H](C)CN([C@H](C)CO)S(=O)(=O)c1ccc(C)cc1	i	2.0	8.7	-2.0

Complete entries from above. Values in the order: FGF22 binding	rRNA inh HTS	rRNA inh HTS OD600	rRNA inh HTS RFP
Cc1ccccc1S(=O)(=O)N1C[C@H](O)COC[C@H]2O[C@H](CC(=O)N3CCN(C)CC3)CC[C@@H]21 is listed as i	-1.6	13.9	-4.2
C[C@@H]1CN([C@@H](C)CO)C(=O)c2cc(NC(=O)CCC(F)(F)F)ccc2O[C@@H](C)CCCCO[C@@H]1CN(C)CC1CCCCC1 is listed as i	0.5	-3.1	-1.0

These rows are one share of the data; rates above refer to the full screens.
